# Bioassay records as filed in PubChem.
# 5HT1a ag: human 5-HT1a receptor agonists, primary screen, cell-based, CHO, Ga15 NFAT-bla reporter | 5-hydroxytryptamine receptor 1A (Homo sapiens), P08908 | CHO 5-HT1a Ga15 NFAT-bla reporter, FRET ratio; 0% basal, 100% maximal reference agonist | activation, % at 10 µM | 0.56% of 65,000 active;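 active means activation above the screen-wide mean activation plus 3 SD, cut at about 19% in these data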;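 further: 0% = DMSO wells and 100% = 5-CT at EC100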
# Target sequence (P08908 whole entry, looked up): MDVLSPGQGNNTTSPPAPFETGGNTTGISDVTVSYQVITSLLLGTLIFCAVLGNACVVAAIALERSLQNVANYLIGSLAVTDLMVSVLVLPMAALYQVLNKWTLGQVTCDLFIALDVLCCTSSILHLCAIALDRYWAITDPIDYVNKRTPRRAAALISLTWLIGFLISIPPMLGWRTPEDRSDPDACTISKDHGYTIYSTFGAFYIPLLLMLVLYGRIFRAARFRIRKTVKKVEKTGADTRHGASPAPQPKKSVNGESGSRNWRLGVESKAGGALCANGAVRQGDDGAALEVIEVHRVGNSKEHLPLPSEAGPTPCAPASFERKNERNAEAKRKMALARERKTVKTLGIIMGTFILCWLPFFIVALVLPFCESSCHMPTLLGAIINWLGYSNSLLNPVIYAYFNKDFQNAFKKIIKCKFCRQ
# Hsp90 inh: tumor Hsp90 inhibitors, primary screen, cell lysate, fluorescence polarization, NCI-N417 lysate; Heat shock protein HSP 90-alpha (Homo sapiens), P07900; Cy3B-geldanamycin FP displacement; inhibition, % at 30 µM; 0.35% of 64,000 active; AID 429, 2006;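 active means inhibition above 50%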;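 further: 0% = tracer plus lysate wells and 100% = tracer alone without lysate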
# M1 antag: antagonists of rat M1 muscarinic receptor; CHO-M1 cells, Fluo-4 calcium, ACh EC80 antagonist mode; active compounds read low; B-score at 10 µM; 3.4% of 64,000 active;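 active means calcium fluorescence response, raw or row-and-column corrected B-score, differing from the plate sample mean either way at a set confidence level, mostly lower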
# D1 mod: D1 CRE-luciferase signal change, two-sided – cell-based, HEK293 D1, dopamine EC30, D1 allosteric modulator project, primary screen | AID 641, 2007 | dopamine EC30 potentiation; actives deviate in either direction | B-score at 10 µM | 5.9% of 58,000 active | D(1A) dopamine receptor (Homo sapiens), P21728;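 active means luminescence count or its row- and column-corrected plate score outside the 99.7% band of the plate's sample wells, on either side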
# M1 agonist: M1 muscarinic receptor agonists, primary screen, CHO-M1 cells, Fluo-4 calcium, agonist mode; B-score at 10 µM; Fluo-4 calcium fluorescence; active compounds read high; AID 626, 2007; 3% of 64,000 active; Muscarinic acetylcholine receptor M1;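 active means fluorescence rise, raw or as B-score row- and column-corrected plate score, outside the 99.7% band of its plate's samples, either direction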
# Ec RNAP inh: E. coli RNAP inhibitors, biochemical. DNA-directed RNA polymerase subunit beta (Escherichia coli (strain K12)), P0A8V2. E. coli RNA polymerase, fluorescence transcription assay. 0.2% of 62,000 active. inhibition, %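 (tested at 10 µM)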; in the data active means inhibition above about 20%;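 further: 0% = enzyme without compound and 100% = no enzyme blank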
# Her2 expr inh: inhibitors of Her2 protein expression, primary screen, SKBR-3 cells, AlphaScreen, 66K library | Receptor tyrosine-protein kinase erbB-2 (Homo sapiens), P04626 | SKBR-3 HER2 protein level, 18-24 h; active compounds read low | HER2 level % of control, % at 10 µM | 0.69% of 65,000 active | AID 645, 2007;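 active means HER2 level under 5% of the carrier-only control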;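 further: 100% = DMSO carrier and 0% = 500 nM PU-H71 HSP90 inhibitor; lower value means stronger loss of Her2 protein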
# Fluor 339 460: intrinsic fluorescence of library compounds, ex339/em460 – biochemical, MLSMR library, data from DPM-DC assay, artefact control, profiling panel | compound autofluorescence, ex339/em460 nm, NADH buffer; active compounds read high; 1 = no-compound wells, NADH background | fluorescence fold increase at 10 µM | 5.5% of 65,000 active | AID 709, 2007;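 active means at 10 µM, mean starting fluorescence two-fold or more over control wells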;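 further: signal is the first read of a kinetic run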
# * = called active by the depositor; . = no result given. This is a subset (hit frequency here may not be typical).
# Value order: 5HT1a ag | Hsp90 inh | M1 antag | D1 mod | M1 agonist | Ec RNAP inh | Her2 expr inh | Fluor 339 460
- NC(=O)c1sc2nc(N3CCCCC3)c3c(c2c1N)CCCC3
 : 6.0 | -4.5 | -0.0791 | 1.11 | -0.218 | 17.9 | 93.6 | 2.46*
- O=C(CN1CCN(C2CCCCC2)CC1)Nc1ccccc1-c1ccccc1
 : 1.8 | -0.2 | 0.206 | -0.27 | 1.16 | 9.0 | 70.6 | 1.03
- CC(=O)N1c2c(cc(Br)cc2S(=O)(=O)NCc2cccnc2)CC1C (stereo unspecified)
 : -0.6 | . | 0.173 | -1.09 | 0.36 | 15.6 | 92.0 | 1.06
- Cc1oc2c(CN3CCCC3)c(O)ccc2c(=O)c1-c1ccc(Cl)cc1
 : -4.2 | -1.9 | 0.512 | . | -0.86 | -5.1 | 121.7 | 3.88*
- Cn1c(=O)n(CC(=O)N2CCOCC2)c2ccccc21
 : -3.7 | -2.2 | 0.619 | 0.424 | -0.173 | . | 106.3 | 1.15
- CCCCn1nnnc1NCc1ccc(OC)c(OC)c1
 : -1.1 | -2.0 | 0 | 0.12 | -0.51 | 2.5 | . | 1.1
- O=C(Cn1nc(Cc2cccnc2)c2ccccc2c1=O)NCCCN1CCCC1=O
 : -5.0 | -2.3 | -1.52 | -0.0614 | 0.146 | 4.9 | 98.9 | 1.08
- O=C1CC(C(=O)Nc2ncccn2)C(c2ccccc2)O1 (stereo unspecified)
 : 0.1 | 1.4 | -0.297 | -0.852 | -1.44 | 4.7 | 106.3 | 1.1
- O=C(C1CCN(S(=O)(=O)c2cccc3cccnc23)CC1)N1CCN(c2ccccc2)CC1
 : -0.4 | -3.5 | 0.532 | -0.859 | -0.0526 | 0.2 | 71.2 | 1.08
- CC(C)C[C@H](NC(=O)NCCc1ccc(Cl)cc1)C(=O)O
 : -2.1 | -1.9 | -0.0438 | 1.09 | 0.0499 | 3.5 | 106.3 | 1.09
- Cc1c(C(=O)NCc2cccnc2)oc2ccc(S(=O)(=O)N3CCCC(C)C3)cc12 (stereo unspecified)
 : 4.5 | . | -0.964 | 3.56 | -0.411 | 10.7 | 154.8 | 1.13
- CCCCN(C)CCCNC(=O)C1CC(=O)N(Cc2ccc(OC)cc2)C1 (stereo unspecified)
 : 0.1 | 2.4 | -0.501 | . | -0.898 | 3.0 | 79.4 | 1.07
- N=c1c2c(-c3ccccc3)c(-c3ccccc3)oc2ncn1CCN1CCOCC1
 : 1.8 | -2.5 | . | 1.25 | . | 5.1 | 65.2 | 1.18
- COc1ccc(CSc2nnnn2Cc2ccccc2)cc1OC
 : -4.2 | -3.5 | 0.965 | 3.64* | -0.0879 | 3.0 | -0.9* | 1.05
- CCOC(=O)CSc1nnc(CNc2ccc(Cl)cc2)n1-c1ccccc1
 : -1.2 | 0.2 | -0.367 | -1.43 | -1.26 | -0.9 | 85.8 | 1.03
- CCOC(=O)CN1C(=O)CSc2ccccc21
 : -4.0 | -3.0 | -0.766 | 1.09 | 1.04 | 1.8 | 74.4 | 0.96
- O=C(NCCN1CCCC1)c1ccc(Cn2c(=S)[nH]c3cc4c(cc3c2=O)OCO4)cc1
 : -0.2 | -2.9 | -0.0893 | -0.545 | -1.27 | 10.2 | 95.7 | 1.05
- CCOC(=O)C1CCCN(CCC(C)c2ccccc2)C1 (stereo unspecified)
 : -0.2 | 0.5 | -1.03 | -1.43 | -0.507 | 5.7 | 104.8 | 1.04
- CCOC(=O)C1CCN(Cc2coc3ccc(Cl)cc3c2=O)CC1
 : -3.0 | -2.8 | -5.08* | -0.751 | -0.689 | -3.0 | 91.7 | 1.14
- CCC(=O)Nc1ccc(Cl)c(NC(=O)c2cccnc2)c1
 : -1.7 | 3.0 | -0.537 | 0.0186 | -0.0751 | 12.2 | 64.4 | 1.08

# Ordered by formula weight (smallest number first): some entries from above
# Value order: 5HT1a ag | Hsp90 inh | M1 antag | D1 mod | M1 agonist | Ec RNAP inh | Her2 expr inh | Fluor 339 460
- CC(C)C[C@H](NC(=O)NCCc1ccc(Cl)cc1)C(=O)O
 : -2.1 | -1.9 | -0.0438 | 1.09 | 0.0499 | 3.5 | 106.3 | 1.09
- NC(=O)c1sc2nc(N3CCCCC3)c3c(c2c1N)CCCC3
 : 6.0 | -4.5 | -0.0791 | 1.11 | -0.218 | 17.9 | 93.6 | 2.46*
- CCCCN(C)CCCNC(=O)C1CC(=O)N(Cc2ccc(OC)cc2)C1 (stereo unspecified)
 : 0.1 | 2.4 | -0.501 | . | -0.898 | 3.0 | 79.4 | 1.07

# For convenience, some entries already given.
# Value order: 5HT1a ag | Hsp90 inh | M1 antag | D1 mod | M1 agonist | Ec RNAP inh | Her2 expr inh | Fluor 339 460
- NC(=O)c1sc2nc(N3CCCCC3)c3c(c2c1N)CCCC3
 : 6.0 | -4.5 | -0.0791 | 1.11 | -0.218 | 17.9 | 93.6 | 2.46*
- O=C(CN1CCN(C2CCCCC2)CC1)Nc1ccccc1-c1ccccc1
 : 1.8 | -0.2 | 0.206 | -0.27 | 1.16 | 9.0 | 70.6 | 1.03

# Molecules from the list above with an aryl methoxy group (three):
# Value order: 5HT1a ag | Hsp90 inh | M1 antag | D1 mod | M1 agonist | Ec RNAP inh | Her2 expr inh | Fluor 339 460
- CCCCn1nnnc1NCc1ccc(OC)c(OC)c1
 : -1.1 | -2.0 | 0 | 0.12 | -0.51 | 2.5 | . | 1.1
- CCCCN(C)CCCNC(=O)C1CC(=O)N(Cc2ccc(OC)cc2)C1 (stereo unspecified)
 : 0.1 | 2.4 | -0.501 | . | -0.898 | 3.0 | 79.4 | 1.07
- COc1ccc(CSc2nnnn2Cc2ccccc2)cc1OC
 : -4.2 | -3.5 | 0.965 | 3.64* | -0.0879 | 3.0 | -0.9* | 1.05

# Single records, from the list above. Values in the order: 5HT1a ag	Hsp90 inh	M1 antag	D1 mod	M1 agonist	Ec RNAP inh	Her2 expr inh	Fluor 339 460
# `CCCCN(C)CCCNC(=O)C1CC(=O)N(Cc2ccc(OC)cc2)C1` (stereo unspecified) in the list: 0.1	2.4	-0.501	.	-0.898	3.0	79.4	1.07
# `CCOC(=O)C1CCCN(CCC(C)c2ccccc2)C1` (stereo unspecified) in the list: -0.2	0.5	-1.03	-1.43	-0.507	5.7	104.8	1.04
